# Methyltransferases: Primary Screen for Target Class Profiling of Small Molecule Inhibitors of Methyltransferases; AID 1745853, 2022; calls only at 40 µM; purified enzyme, MTase-Glo SAH luminescence; active compounds read low; actives 3.9% (n = 25,000); active = -50% or lower on at least one of six enzymes; inconclusive = the cases between; inactive = as a rule above -30% on all six;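 note: enzymes were COMT GAMT GNMT HNMT NNMT and PNMT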
#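 Each enzyme was reacted with SAM and its substrate, with compounds tested once at 40 uM; SAH formed was read by MTase-Glo luminescence.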
# Calls only; i = inactive; ? = inconclusive; + = active, no number. % is set by controls: 0 for no effect and ±100 for the full control effect. Not all compounds are listed (hit frequency here may not be typical).
SMILES,Methyltransferases
COc1ccc(-c2[nH]ncc2CN2CC[C@H]3CC[C@@H](C2)N3)cc1,+
O=C(CCn1ccc2cc(S(=O)(=O)N3CCCCC3)ccc21)NCc1ccccc1Cl,i
Clc1ccccc1CNc1nc2c(-c3ccccc3)nnn2c2ccccc12,i
CCCn1c(=O)c2cc(F)ccc2n2c(SCc3ccccc3C)nnc12,i
c1ccc(CC2=NOC3(CCCN(Cc4ccns4)C3)C2)cc1 (stereo unspecified),i
Cn1cc(CN2CCOC[C@H](Oc3ccc(S(C)(=O)=O)cc3)C2)c2ccccc21,i
CCN1CCN(C(=O)c2cc3n(n2)CC(C)(C(=O)NC2CCCCC2)N(C)C3=O)CC1 (stereo unspecified),i
COCCc1nncn1C1CCN(C(=O)c2ccc(C)s2)CC1,i
CN(CCOc1cccc(Cl)c1)C(=O)c1cccc(CCC(C)(C)O)c1,i
COCCN(Cc1ccccc1F)Cc1cc2c(cc1OC)OCO2,i
COC1CC(O[C@H]2CC[C@@]3(C)C(=CC[C@]4(O)C3[C@H](OC(C)=O)[C@@H](OC(=O)c3ccccc3)[C@]3(C)[C@@H](C(C)=O)CC[C@@]34O)C2)OC(C)C1OC1CC(OC)C(OC2CC(OC)C(OC3OC(C)C(OC4OC(CO)C(O)C(O)C4O)C(OC)C3O)C(C)O2)C(C)O1 (stereo partly specified),?
COc1ccccc1CN1C(=O)c2ccccc2CC1(C)C(=O)NC1CCCCC1 (stereo unspecified),i
COc1nc(C)c(C(=O)NC2CC(c3cc(=O)[nH]c(C)n3)C2)s1 (stereo unspecified),i
Cc1ccccc1CCN1CCC(CN(C(=O)c2ccoc2C)C2CCCC2)CC1,i
Cc1ccc(C(N)=O)cc1-c1cc(NCc2cccnc2)nc2[nH]ccc12,i
COC(=O)C12C(=O)C(C)=C(O)C1(C)C(C)=CC1C34CCC(OC3=O)C(C)(C)C4CCC12C (stereo unspecified),i
C[C@@H]1C[C@@H](O)[C@@]23CO[C@@H](O)[C@@H]2CCC[C@@H]3[C@@]12C[C@@H](c1ccoc1)OC2=O,i
CC(C)CC(NC(=O)c1ccc(=O)[nH]c1)c1nnc2n1CCNCC2 (stereo unspecified),i
O=C(c1cn[nH]c1-c1ccc(F)cc1)N1CC2CC(C1)[C@H]1CCCC(=O)N1C2 (stereo partly specified),i
CCCCSCc1cc(C(=O)N2CC(C)(C)C(C)(O)C2)oc1C (stereo unspecified),i
COc1ccc(CNC(=O)c2cc3n(n2)CC(C)(C(=O)NC2CCCCC2)N(C)C3=O)cc1OC (stereo unspecified),i
CCN1C(=O)c2cc(C(=O)NC3CCN(Cc4ccccc4)CC3)nn2CC1(C)C(=O)NC1CCCC1 (stereo unspecified),i
CNc1cccnc1OC1CCN(S(=O)(=O)c2ccc3c(c2)CCC3)C1 (stereo unspecified),i
O=C(c1ccc(-c2ccc(O)cc2)cc1)N1CCOC2(CNCCOC2)C1 (stereo unspecified),i
CC1(C(=O)NC2CCCCCC2)Cn2c(nc3ccccc32)C(=O)N1Cc1ccccc1Cl (stereo unspecified),i

# Grouped by structure, the compounds so far with an aryl methoxy group.
SMILES,Methyltransferases
COc1ccc(-c2[nH]ncc2CN2CC[C@H]3CC[C@@H](C2)N3)cc1,+
COCCN(Cc1ccccc1F)Cc1cc2c(cc1OC)OCO2,i
COc1ccccc1CN1C(=O)c2ccccc2CC1(C)C(=O)NC1CCCCC1 (stereo unspecified),i
COc1nc(C)c(C(=O)NC2CC(c3cc(=O)[nH]c(C)n3)C2)s1 (stereo unspecified),i
COc1ccc(CNC(=O)c2cc3n(n2)CC(C)(C(=O)NC2CCCCC2)N(C)C3=O)cc1OC (stereo unspecified),i

# Returning to the listing; the 2 compounds before the break are reprinted first.
SMILES,Methyltransferases
O=C(c1ccc(-c2ccc(O)cc2)cc1)N1CCOC2(CNCCOC2)C1 (stereo unspecified),i
CC1(C(=O)NC2CCCCCC2)Cn2c(nc3ccccc32)C(=O)N1Cc1ccccc1Cl (stereo unspecified),i
Cc1cc(C)n2nc(C(=O)N3CCCC4(CNC(=O)O4)C3)cc2n1 (stereo unspecified),i
Cc1nc(-c2ccc(OC3CCN(C(=O)NC4CCCCC4)C3)cc2)no1 (stereo unspecified),i
C=C1C(=O)OC2C(OC(=O)C=C(C)C)C(C)=C3C(=O)C=C(C)C3C(O)C12 (stereo unspecified),+
COc1cc(N)c(Cl)cc1C(=O)OCCN1CCCCC1,i
Cc1cnc(CCNS(=O)(=O)c2cn(C)cn2)n1C1CCC1,i
CN(C)C(=O)N1CCCn2nc(CNC(=O)Nc3cccc(C#N)c3)cc2C1,i
CCCCC(=O)N(C)CC1CCOC1 (stereo unspecified),i
Cc1[nH]c(=O)c(C#N)cc1-c1ccc2nccn2c1,+
O=C1CN(Cc2c(F)cccc2Cl)S(=O)(=O)c2ccccc2N1Cc1ccc(F)cc1,i
CC(C)c1ccc(-c2nnc3n(Cc4ccccc4)c(=O)c4ccccc4n23)cc1,i
COCCN1C(=O)c2c(NC(C)=O)c3cc(OC)ccc3n2CC1(C)C(=O)NC1CCCCCC1 (stereo unspecified),i
CSCC(=O)N1CC[C@H](NC(=O)Nc2cccc(SC)c2)[C@H]1C(=O)N[C@H](Cc1ccccc1)C(N)=O,i
CC(C)[S+](=O)([O-])N1CC2ON=C(C(=O)O)C2C1 (stereo unspecified),i
O=C1CC(c2nc(-c3ccc4nc[nH]c4c3)no2)CN1Cc1cccnc1 (stereo unspecified),i
CCCCNC(=O)c1cc2n(n1)CC(C)(C(=O)NC1CCCC1)N(CCC)C2=O (stereo unspecified),i
O=C(Cn1c(=O)oc2cc(S(=O)(=O)NC3CCCC3)ccc21)NCc1ccccc1Cl,i
O=C(OCCN1CCOCC1)C1(c2ccccc2)CCCCC1,i
O=C(Nc1ccc(F)c(Cl)c1)N1CCn2cccc2C1Cc1ccccc1 (stereo unspecified),+
CC(C)c1noc([C@@H]2C[C@H](NC(=O)c3ccc(F)cc3)CN2C)n1,i
Cc1ccc(C(=O)Cn2nc3n(C)c(=O)c4ccc(C(=O)NC5CCCC5)cc4n3c2=O)c(C)c1,i
Cc1cc(F)ccc1S(=O)(=O)N1C[C@H](C2CC2)[C@@H](N)C1,i
Cc1cccc(-c2[nH]ncc2-c2ccc(F)c(-c3cnn(CCO)c3)c2)n1,i
Cc1cc(C(=O)N2CC[C@H](NS(=O)(=O)c3cn(C)cn3)C[C@H]2C(=O)N[C@H](Cc2c[nH]c3ccccc23)C(N)=O)n(C)n1,i
C/C(=C/CO)CCC1C(C)CCC2C(C)(C)CCCC12C (stereo unspecified),i
CCOC(=O)c1cc2n(n1)CC(C)(C(=O)NC1CCCCC1)N(c1ccccc1OC)C2=O (stereo unspecified),i

# The listing continues.
SMILES,Methyltransferases
Cc1ncc2c(c1CNC(=O)Cc1ccsc1)CCN(C(=O)Cc1ccc(F)c(F)c1)C2,i
CCCCOc1ccccc1-c1cc2n(n1)CC(C)(C(=O)NC1CCCCCC1)N(CC)C2=O (stereo unspecified),i
CCCN1C(=O)c2c(C(=O)NCc3cccc(F)c3)ncn2CC1(C)C(=O)NCc1ccc(OC)cc1 (stereo unspecified),i
COc1cc(OC)c(NC(=O)N2CCn3cccc3C2Cc2ccccc2)cc1Cl (stereo unspecified),i
CC(C)Oc1ccc2c(NC(=O)CN3CCCC3=O)nn(Cc3ccccc3)c2c1,i
COc1ccc2nc(S(=O)(=O)Cc3ncc(C)c(OC)c3C)[nH]c2c1,i
COCCN1CC(C(=O)N2CCN(c3ncccc3C#N)CC2)CCC1=O (stereo unspecified),i
CN(C)C(=O)CCC(=O)N1CC[C@@](C)(O)[C@@H](Cc2ccccc2)C1,i
CC(C)OCCCn1c(=O)c2ccccc2n2c(CCC(=O)NCCc3ccc(Cl)cc3)nnc12,i
Cc1cc(C)n(-c2cccc(CN(C)C(=O)Cn3nnnc3CN3CCOCC3)c2)n1,i
CC1CC(C)CN(S(=O)(=O)c2ccc3c(c2)oc(=O)n3CC(=O)NCc2ccccc2)C1 (stereo unspecified),i
COCCN1CC2CN(C(=O)c3ccc(Cc4c(C)noc4C)o3)CC(C1)O2,i
CC1CCC2(C(=O)OC3OC(CO)C(O)C(O)C3O)CCC3(C)C(=CCC4C5(C)CCC(O)C(C)(CO)C5CCC43C)C2C1(C)O (stereo unspecified),i
CCC(C)NC(=O)c1ccc2c(=O)n(C(C)C)c3nn(CC(=O)c4ccc(OC)cc4)c(=O)n3c2c1 (stereo unspecified),i
COc1cc(NC(=O)N2CCn3cccc3C2C)cc(OC)c1 (stereo unspecified),i
COCc1nnc2n1CCC(NC(=O)C1(c3ccc(OC)cc3)CC1)CC2 (stereo unspecified),i
O=C(O)c1ccc(OC2OC(CO)C(O)C(O)C2O)cc1 (stereo unspecified),i
COc1cccc(-c2nnc3n(Cc4ccccc4)c(=O)c4ccccc4n23)c1OC,i
Cc1ccc(Cn2c(=O)c3ccc(C(=O)NC(C)C)cc3n3c(=O)n(Cc4ccc(Cl)cc4)nc23)cc1,i
Cc1ccc(Nc2ccn3c(=O)n(CC(=O)Nc4ccc(C)c(F)c4)nc3n2)cc1,i
CCOCc1nc2c(N)nc3ccccc3c2n1CC(C)(C)O,i
CC(C)CNC(=O)N1CCCCC1c1nc(CCOc2ccc(F)cc2)no1 (stereo unspecified),i
COc1ccc(CNc2nc3c(S(=O)(=O)c4ccc(F)cc4)nnn3c3ccccc23)cc1,i
Cc1nn(CC(=O)NCCCN2CCCCC2)c(=O)c2nc(-c3ccccc3)sc12,?
CCOc1ccc(C(=O)Cn2nc3n(CCc4ccccc4)c(=O)c4ccccc4n3c2=O)cc1,i

# Continued.
SMILES,Methyltransferases
Cc1noc2c(NCCN3CCOCC3)cc(-c3ccsc3)nc12,i
CCCn1c(=O)c2ccc(C(=O)NCC(C)C)cc2n2c(=O)n(Cc3ccc(Cl)cc3)nc12,i
CCOC(=O)c1cc2n(n1)CC(C)(C(=O)NCCC(C)C)N(c1ccc(C)c(F)c1)C2=O (stereo unspecified),i
COc1cc2c(Nc3cc(F)c(Cl)c(Cl)c3)ncnc2cc1OCC1CCCN(C)CCC1,+
Cc1ccsc1C(=O)N1CCC(c2nc(CCOCC3CC3)no2)C1 (stereo unspecified),i
COc1ccc(NC(=O)CN(C)S(=O)(=O)c2ccc3[nH]c4c(c3c2)CCCC4)cc1,i
Cc1ccc(Cn2nc3n(C(C)C)c(=O)c4ccc(C(=O)NCC(C)C)cc4n3c2=O)cc1,i
COc1c[nH]c(CN2CCN(C)C3(CCC(=O)N(C)CC3)C2)cc1=O (stereo unspecified),i
CCC#CCN1CCc2ccccc2N(CC(O)COCc2ccco2)CCC1=O (stereo unspecified),i
CC(C)n1c(=O)c2ccc(C(=O)NC3CCCCC3)cc2n2c(=O)n(CC(=O)NC(C)(C)C)nc12,i
CCC(C)NC(=O)c1ccc2c(=O)n(C(C)C)c3nn(CC(=O)Nc4ccccc4C)c(=O)n3c2c1 (stereo unspecified),i
O=C1CN(Cc2cccc(C(F)(F)F)c2)S(=O)(=O)c2ccccc2N1Cc1ccc(Cl)cc1,i
CCCOc1ccc(CN2C(=O)c3cc4oc(C)cc4n3CC2(C)C(=O)NC2CCCCC2)cc1 (stereo unspecified),i
CCc1ccc(NC(=O)CSc2nnc3[nH]c(=O)c(C(C)(C)C)nn23)cc1,i
Cc1ccc2c(C(=O)NCc3ccc(Cl)cc3)cnn2c1,i
COc1ccccc1-c1ccc(C(=O)N2CCC(NC(=O)Cc3ccc(F)cc3)CC2)cc1,i
CCOc1ccccc1CN1C(=O)c2nc3ccccc3n2CC1(C)C(=O)NC1CCC(C)CC1 (stereo unspecified),i
Fc1ccc2nc(CO[C@H]3CN(C4CCC4)C[C@H]3F)[nH]c2c1,i
O=C(c1coc(COc2ccc(F)cc2)n1)N1CCC(c2ccc(F)cc2)C1 (stereo unspecified),i
COC(=O)N[C@H](C(=O)N1CC2(CC2)C[C@H]1c1ncc(-c2ccc3c(c2)C(F)(F)c2cc(-c4ccc5nc([C@@H]6[C@H]7CC[C@H](C7)N6C(=O)[C@@H](NC(=O)OC)C(C)C)[nH]c5c4)ccc2-3)[nH]1)C(C)C,?
CCCCN(CCCC)CCCN1C(=O)c2cc3occc3n2CC1(C)C(=O)NC1CCCCCC1 (stereo unspecified),i
Cc1cc(C(=O)N[C@@H]2CCC[C@@H](C(=O)N(C)Cc3cccnc3)CC(=O)N(C)C2)no1,i
CC(C)Cc1ccc(S(=O)(=O)NCCn2c(CCc3ccccc3)nc3ccccc32)cc1,i
O=C(NC1CC1)c1ccc2c(=O)nc3c(-c4ccc(F)cc4)n[nH]n3c2c1,i
CCN(C1CCOCC1)C1CN(C(=O)c2ccccn2)C1,i
O=S(=O)(C1CC1)N1CCn2c(nnc2-c2cncc(Br)c2)C1,i
CCCn1c(=O)c2ccc(C(=O)NC3CCCC3)cc2n2c(=O)n(Cc3ccccc3Cl)nc12,i
CNc1nc2c(s1)C[C@]1(C)CCC([C@H](C)C(=O)N3CCSCC3)[C@H](O)[C@H]1[C@@H]2C (stereo partly specified),i

# Part of the list above in order of heavy-atom count, rising.
SMILES,Methyltransferases
CCN(C1CCOCC1)C1CN(C(=O)c2ccccn2)C1,i
Cc1noc2c(NCCN3CCOCC3)cc(-c3ccsc3)nc12,i
O=C(c1coc(COc2ccc(F)cc2)n1)N1CCC(c2ccc(F)cc2)C1 (stereo unspecified),i
COc1ccccc1-c1ccc(C(=O)N2CCC(NC(=O)Cc3ccc(F)cc3)CC2)cc1,i
CCCOc1ccc(CN2C(=O)c3cc4oc(C)cc4n3CC2(C)C(=O)NC2CCCCC2)cc1 (stereo unspecified),i

# Assay outcomes deposited in PubChem by National Center for Advancing Translational Sciences (NCATS).
